# YopH PTP inh: YopH tyrosine phosphatase inhibitors, primary screen, biochemical, fluorescence Ex485/Em525 | YopH tyrosine phosphatase [Yersinia enterocolitica] | inhibition, %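 (about 10 µM by stock and volumes)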 | AID 898, 2007 | 0.16% of 140,000 active;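 active means inhibition of 50% or more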;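 further: controls were vehicle for no effect and minimum signal wells for full effect; inactives centre near -20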
# RecA intein inh: Mtb RecA intein splicing inhibitors, primary screen, biochemical, fluorescence, HTS; Protein RecA (Mycobacterium tuberculosis (strain ATCC 25618 / H37Rv)), P9WHJ3; cell-free RecA intein splicing; inhibition, %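 (about 9 µM by stock and volumes)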; 0.75% of 290,000 active; AID 2221, 2009; in the data active means inhibition above about 30%; inconclusive means no clear call, values can overlap the other calls;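 further: 0% = vehicle wells and 100% = reference inhibitor control wells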
# Target sequence (P9WHJ3 whole entry, looked up): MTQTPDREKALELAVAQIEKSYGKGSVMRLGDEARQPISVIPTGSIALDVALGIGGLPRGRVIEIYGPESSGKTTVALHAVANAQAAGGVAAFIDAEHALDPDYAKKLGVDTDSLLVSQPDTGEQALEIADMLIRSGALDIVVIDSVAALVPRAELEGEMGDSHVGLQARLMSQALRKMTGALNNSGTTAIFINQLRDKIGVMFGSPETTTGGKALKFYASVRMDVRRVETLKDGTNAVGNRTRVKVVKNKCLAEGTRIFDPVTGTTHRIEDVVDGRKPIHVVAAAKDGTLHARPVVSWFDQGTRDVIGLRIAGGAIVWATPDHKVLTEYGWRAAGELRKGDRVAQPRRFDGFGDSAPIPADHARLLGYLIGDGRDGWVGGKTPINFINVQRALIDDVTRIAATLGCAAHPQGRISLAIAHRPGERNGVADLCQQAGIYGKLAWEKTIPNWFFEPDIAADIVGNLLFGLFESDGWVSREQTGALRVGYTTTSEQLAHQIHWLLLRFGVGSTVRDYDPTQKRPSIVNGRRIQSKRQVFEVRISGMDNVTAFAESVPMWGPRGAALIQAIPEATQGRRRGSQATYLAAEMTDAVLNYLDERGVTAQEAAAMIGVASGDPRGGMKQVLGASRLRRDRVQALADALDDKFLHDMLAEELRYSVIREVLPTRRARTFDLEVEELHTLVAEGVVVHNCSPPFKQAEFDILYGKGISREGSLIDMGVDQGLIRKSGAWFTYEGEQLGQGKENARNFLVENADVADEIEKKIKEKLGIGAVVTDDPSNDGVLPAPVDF
# Arbovirus inh: antivirals against arbovirus infection, primary screen, cell-based, full library, 10K replicate subset. arbovirus infection cell-based antiviral screen. inhibition, % at 10 µM. 0.37% of 200,000 active. AID 1251, 2008;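 active means inhibition from about 30%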;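 further: bluetongue infection of BSR cells; cell survival read as ATP light after 72 h; 0% = infected wells without compound and 100% = uninfected wells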
# Mtb bLac sens: beta-lactam sensitization of Mtb H37Rv, H37Rv | AID 434955, 2010 | 0.27% of 330,000 active | inhibition, % at 25 µM | M. tuberculosis H37Rv growth with meropenem, percent inhibition; hits of this screen are not shown here;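 active means about 74% or more and at least 40 points above the plate without the antibiotic, then above 30% in a dose series; inconclusive means first-round hits that could not be retested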;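 further: growth measured after seven days incubation then overnight dye step; 0% = bacteria only wells and 100% = bacteria with antibiotic; twin plates without the antibiotic show which effects depend on it; some results filed as inactive read as strong as hits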
# Mtb H37Rv: M. tuberculosis H37Rv growth inhibitors, H37Rv strain (AID 1626). M. tuberculosis H37Rv growth inhibition; higher % means a stronger effect. inhibition, % at 10 µM, or IC50 in µM where a hit was titrated. 0.95% of 220,000 active;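 active means confirmed in a dose series; inconclusive means inhibition above 80% but not taken into the dose series; inactive means below 80% or under 30% at every dose of the series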;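 further: bacteria incubated seven days before Alamar blue readout; 0% = bacteria only wells and 100% = bacteria with antibiotic wells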
# Arbovirus inh repeat: recorded beside Arbovirus inh, whose call it bears; inhibition, %; measured here: 10K subset replicate screen; many hits read low in the repeat;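 first of two repeat runs on a subset; 0% = infected and 100% = uninfected wells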
# * marks the source's active call; other numbers are inactive results; ? = inconclusive; · = no result given. These rows are one share of the data; count on the stated rates, not on these rows.
SMILES,YopH PTP inh,RecA intein inh,Arbovirus inh,Mtb bLac sens,Mtb H37Rv,others
Cc1nn2c(-c3ccncc3)nnc2c2ccccc12,-29,-0.2,-3,1,3%,
C=CCOC(=O)/C(=C\c1cccc2ccccc12)NC(=O)c1ccccc1,-2,3.8,2,28,8%,
CCCC(c1nnnn1Cc1ccc(F)cc1)N1CCN(C)CC1 (stereo unspecified),·,1.0,10,2,9%,
Cc1cc(NC(=O)CO/N=C/c2ccc3c(c2)OCO3)ccc1Br,·,0.5,-5,-10,-6%,
COc1ccc2c(c1)N1CCN=C1N2C,-36,-0.2,3,23,4%,
CC(C)[C@H](NC(=O)OCc1ccccc1)C(=O)OCC(=O)N1CCN(c2ccccc2)CC1,·,9.9,·,-9,·,
N#Cc1ccccc1OCC(=O)NCC1(N2CCCCC2)CCCCC1,·,0.2,10,-10,-1%,
CCc1nnc(SCc2cccc(F)c2)nc1CC,·,7.1,·,-11,1%,
COc1ccc(CC(NC(C)=O)C(=O)NC2CCN(S(=O)(=O)c3ccc(NC(C)=O)cc3)CC2)c(OC)c1 (stereo unspecified),·,0.6,·,2,·,
Cc1ccc(C(=O)Oc2cc(N)n(S(=O)(=O)c3ccc(F)cc3)n2)cc1,·,-0.7,·,-1,·,
O=C(O)CCCNC(=O)OCc1ccccc1,-24,-2.6,-1,0,-6%,
CCN(CCNC(=O)Nc1ccc(Cl)cc1)c1ccccc1,-11,0.5,4,88,?,
O=C(OCn1nnc2ccccc2c1=O)c1cc(-c2ccccc2)nc2ccccc12,-11,-1.1,-11,5,3%,
Cc1ccc(-n2c(SCC(=O)N/N=C/C=C/c3ccccc3[N+](=O)[O-])nc3ccccc3c2=O)cc1,-15,-2.3,0,3,8%,
CCCCCP(=O)(O)c1ccccc1,0,-0.9,2,4,-2%,Arbovirus inh repeat=4
COc1ccc(OC)c(-c2nc3cc4ccccc4cc3nc2-c2ccccc2)c1,-11,-28,-2,-3,44%,
CCc1cccc(NC(=O)CSC2=NS(=O)(=O)c3ccccc32)c1,1,9.7,2,-5,-2%,
O=C(Cn1cnc2ccccc2c1=O)Nc1ccc(-c2nnc3n2CCCCC3)cc1,-41,-6.2,9,-15,2%,
CC(NC(=O)COC(=O)Cn1cnc2ccccc2c1=O)C1CC2CCC1C2 (stereo unspecified),-4,-0.4,5,-6,-2%,
Cn1nc(C(=O)N2CCN(C(c3ccccc3)c3ccccc3)CC2)c2ccccc2c1=O,·,13,·,22,10%,
CCOc1ccc(S(=O)(=O)N(C)c2ccc(OCC(=O)Nc3ccc4[nH]c(=O)[nH]c4c3)cc2)cc1,-3,2.8,3,71,12%,Arbovirus inh repeat=-1
Cc1ccc(NC(=O)CN(C)C(=O)c2nn(C)c(=O)c3ccccc23)cc1,·,14,·,-1,-12%,
CCOC(=O)CS(=O)(=O)c1ccccc1,-32,-0.2,4,1,4%,
O=C(NCCCn1ccnc1)c1ccc(Br)o1,23,-0.2,6,4,-8%,
CCn1c(=O)cc(OCC(=O)NCc2ccc(C)o2)c2ccccc21,-34,-0.2,-13,-4,-1%,

# The list goes on.
SMILES,YopH PTP inh,RecA intein inh,Arbovirus inh,Mtb bLac sens,Mtb H37Rv,others
CC(/C=C1\SC(=S)N(CCC(=O)Nc2ccc(O)cc2)C1=O)=C\c1ccccc1,·,4.4,·,3,·,
CCCc1nc2oc3c(NCC(C)O)ncnc3c2c2c1CCCC2 (stereo unspecified),·,1.3,·,0,-5%,
CCC(C(=O)NC1CCCCCC1)n1nc(C)c2c(C)n(-c3ccccc3)nc2c1=O (stereo unspecified),·,5.0,·,-8,·,
CCCCCC(=O)N1CC2(CC(c3cccc(NC(=O)[C@@H]4CCC(=O)N4)c3)=NO2)C[C@@H]1C(N)=O (stereo partly specified),·,-1.2,·,-2,5%,
O=C(Nc1cccc(-c2cn3ccccc3n2)c1)C1CC1,-28,-0.9,-3,-1,-3%,
COc1ccc(OS(=O)(=O)c2ccc(N3C(=O)CCC3=O)cc2)cc1,·,0.4,·,1,·,
CCOCC(=O)Nc1cc(S(=O)(=O)N2CCOCC2)ccc1N1CCCCC1,·,3.7,1,1,-2%,
Cc1ccc(C)c(OCc2cc(C(=O)NC(c3ccccn3)C(F)(F)F)no2)c1 (stereo unspecified),·,-1.7,·,91,·,
O=[N+]([O-])c1ccc(N2CCCCC2)cc1NCCOc1ccccc1,10,-2.1,5,12,5%,
CCCCc1nnc(NC(=O)c2ccccc2OCc2c(C)noc2C)s1,·,3.1,·,-10,·,
Cn1c(O)c(C(=Nc2ccccc2)SCc2ccc(Cl)cc2)c(=O)n(C)c1=O,·,·,·,99,5.6µM*,
c1cncc(-c2noc(CC3CCCCC3)n2)c1,-10,0.7,12,2,10%,
CS(=O)(=O)c1ccccc1C(=O)N(CCc1ccccc1)Cc1ccccc1,·,6.1,·,3,·,
CC(C)CN(CC(C)C)C(=O)C12CCC(C)(C(=O)O1)C2(C)C (stereo unspecified),-7,-0.9,2,4,-10%,
COc1ccc(OCc2cc(C(=O)NC(C)Cc3ccccn3)no2)c(Cl)c1 (stereo unspecified),·,-1.2,·,-5,·,
CC(C)NC(=O)Nc1n[nH]c(Nc2ccc(Cl)cc2)n1,·,-3.6,·,-5,-6%,
Cc1cc(NC(=O)Cc2ccsc2)ccc1Br,·,3.4,·,59,·,
COc1cccc(N2C(=O)CC(N3CCc4ccccc4C3)C2=O)c1 (stereo unspecified),·,1.5,·,-9,-4%,
CN(C)S(=O)(=O)c1ccc(C(=O)OCC(=O)Nc2ccc(OC(F)F)cc2)cc1,·,-0.5,·,-1,-4%,
COC(=O)c1cccc(-n2c(=O)n(Cc3ccccc3)c(=O)c3[nH]cnc32)c1C,·,0.3,·,3,·,
CCCCc1c(O)nc(SCC(=O)Nc2ccc(C)cc2)n(-c2ccc(OC)cc2)c1=O,·,-3.3,·,-5,·,
CN1CCN(S(=O)(=O)c2cccc(C(=O)NCc3ccc(Cl)cc3)c2)CC1,·,0.0,23,-10,11%,
O=C(CSCc1ccccc1)Nc1ccccc1C(=O)Nc1ccc(C(=O)O)cc1,·,2.8,·,-2,0%,
CCCSc1nc(C)cc(C)c1S(=O)(=O)c1ccccc1C,-34,-2.6,-7,7,·,
COc1ccc(NC(=O)/C(=C/c2cccs2)NC(=O)c2ccco2)cc1,·,-0.8,·,-10,-13%,

# Nothing new here: an excerpt of the list.
SMILES,YopH PTP inh,RecA intein inh,Arbovirus inh,Mtb bLac sens,Mtb H37Rv,others
CS(=O)(=O)c1ccccc1C(=O)N(CCc1ccccc1)Cc1ccccc1,·,6.1,·,3,·,
CC(C)CN(CC(C)C)C(=O)C12CCC(C)(C(=O)O1)C2(C)C (stereo unspecified),-7,-0.9,2,4,-10%,
COc1ccc(OCc2cc(C(=O)NC(C)Cc3ccccn3)no2)c(Cl)c1 (stereo unspecified),·,-1.2,·,-5,·,

# Pulled one by one from the list above (5):
SMILES,YopH PTP inh,RecA intein inh,Arbovirus inh,Mtb bLac sens,Mtb H37Rv,others
COc1ccc(OCc2cc(C(=O)NC(C)Cc3ccccn3)no2)c(Cl)c1 (stereo unspecified),·,-1.2,·,-5,·,
CN1CCN(S(=O)(=O)c2cccc(C(=O)NCc3ccc(Cl)cc3)c2)CC1,·,0.0,23,-10,11%,
Cc1ccc(C)c(OCc2cc(C(=O)NC(c3ccccn3)C(F)(F)F)no2)c1 (stereo unspecified),·,-1.7,·,91,·,
CC(/C=C1\SC(=S)N(CCC(=O)Nc2ccc(O)cc2)C1=O)=C\c1ccccc1,·,4.4,·,3,·,
CC(C)CN(CC(C)C)C(=O)C12CCC(C)(C(=O)O1)C2(C)C (stereo unspecified),-7,-0.9,2,4,-10%,

# Going on with the list:
SMILES,YopH PTP inh,RecA intein inh,Arbovirus inh,Mtb bLac sens,Mtb H37Rv,others
COC(=O)c1cc(-c2ccc(OC)c(OC)c2)on1,-24,-0.4,1,95,<0.39µM*,
COc1ccc(N(C(=O)CNC(=O)c2ccco2)C(C(=O)NC2CCCC2)c2ccncc2)cc1 (stereo unspecified),·,-0.9,4,0,-4%,
CN1CCN(C(=O)c2ccccc2NC(=O)c2cccc(Cl)c2)CC1,·,-1.7,·,-9,·,
COc1cccc(-c2nnc(-c3ccc(C)o3)o2)c1,-14,2.7,7,-9,-21%,
CC1Cc2nc(SCC(=O)Nc3ccc4c(c3)OCO4)n(Cc3ccccc3)c(=O)c2S1 (stereo unspecified),-13,9.5,-15,1,-5%,
COCC(C)NC(=O)CSc1nnc(-c2cccc(S(=O)(=O)N3CCCCC3)c2)o1 (stereo unspecified),·,-2.6,20,-2,0%,
COc1cc(OC)cc(C(=O)N2CCN(c3ccc(N4CCOCC4)nn3)CC2)c1,·,-6.5,·,-6,·,
Cc1cccc(N(C)S(=O)(=O)c2nnc(NC(=O)c3ccco3)s2)c1,·,-3.1,·,70,·,
Cc1ccc(NS(=O)(=O)c2ccc(-c3cnc(C4CC4)o3)cc2)cc1,·,-8.0,·,-1,·,
Cc1ccc(NC(=O)c2cccc(N3C(=O)C4C5C=CC(C5)C4C3=O)c2)cc1C (stereo unspecified),·,-0.9,·,-5,·,
CC(=O)C1=C(c2ccccc2)NC(=O)NC1c1ccc(O)c(O)c1 (stereo unspecified),·,3.5,0,3,-3%,
Cc1cc(C)c(C(=O)C2OC(=O)C(C)(C)C(=O)C2(C)C)c(C)c1 (stereo unspecified),-28,-1.8,4,-9,-2%,
CCOC(=O)C1CCN(Cc2ccc(OC)c(C)c2OC)CC1,-26,-0.6,-3,4,-4%,Arbovirus inh repeat=4
O=C(CSc1nc2ccccc2s1)CSc1nc2ccccc2s1,-12,-1.2,24,6,-1%,
Cc1cc2nncn2c(Cc2ccccc2)n1,-34,-1.5,5,-14,-2%,
COc1ccc(Cl)cc1NC(=O)Cn1nnc(C(=O)NCCc2ccc(OC)c(OC)c2)c1N,·,-0.3,·,5,·,
O=C1CSC(c2cccc([N+](=O)[O-])c2)N1CCc1ccccc1 (stereo unspecified),·,0.8,·,-4,·,
Cc1onc(-c2ccccc2)c1C(=O)NC(=S)NNC(=O)c1ccccc1O,-11,14,-28,8,10%,
CCOC(=O)CSc1nc(N2CCOCC2)c2c(c1C#N)CC(C)(C)OC2,·,-2.7,·,85,·,
COc1ccc(N2CCN(C(=O)NCc3ccc(C)cc3)CC2)cc1,·,-1.2,·,0,·,
Cc1ccc(S(=O)(=O)NC(CC(=O)N2CCC3(CC2)OCCO3)c2ccco2)cc1 (stereo unspecified),-49,4.3,5,-2,-18%,
c1ccc2c(-c3csc(-c4ccncc4)n3)c[nH]c2c1,·,0.3,-4,31,8%,
Cc1ccc(/C=N/NC(=O)CN2CCN(Cc3ccccc3Cl)CC2)o1,·,-1.0,·,-7,0%,
COc1ccc(CCC(=O)O)c(O)c1,·,-5.3,·,-8,-6%,
O=C1NC2(CCCc3ccccc32)C(=O)N1CCOc1ccc(Br)cc1 (stereo unspecified),-18,2.2,3,-3,6%,
CCc1nn(CC(=O)NCCN2CCN(C)CC2)c(=O)c2cc3c(OC)cccc3n12,·,2.5,·,0,·,
Nc1cccc(-c2ccc(CO)o2)c1,·,0.1,-1,4,-3%,
COc1ccc(C2=NN3C(C2)c2ccccc2OC3c2cccs2)cc1 (stereo unspecified),·,6.3,-9,-1,-3%,
CN(C)c1ncnc(N(C)C)c1[N+](=O)[O-],·,-2.7,·,-3,0%,
